Bioassay records deposited in PubChem BioAssay by National Center for Advancing Translational Sciences (NCATS).
miR-21 reporter: qHTS Assay for Modulators of miRNAs and/orActivators of miR-21; 340,000 tested, under 10 active; Potency, µM (highest dose often 38.3 µM), for the others: top-dose reporter change, positive = more light; HeLa miR-21 FLuc reporter, luciferase, 48 h; AID 2288, 2010; active = well fitted rising curve with a large enough effect; inconclusive = small, poorly fitted or top-dose-only effect; inactive = no such curve, though single readings can be large or run the other way;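 further: % of control where 0% means no effect; miR-21 action dims this reporter so a rising signal means less miR-21 action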
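HeLa cells endogenously expressing miR-21, stably carrying CMV-driven firefly luciferase with a downstream miR-21 binding site, 2000 cells/well. Titrations up to approximately 40 uM, 48 hours; luciferase luminescence read.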
GLA inh pH 4.5: qHTS Assay for Inhibitors of Human alpha-Galactosidase at pH 4.5; 230,000 tested, under 10 active; AID 1467, 2008; activity change, negative = inhibition, % at 105 µM; purified enzyme, 4-MU-alpha-Gal fluorescence, pH 4.5; inconclusive = small, poorly fitted or top-dose-only inhibition, or a rising curve; inactive = flat fitted curve, though single readings scatter; no compound was filed as active;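 further: 0% = full activity with enzyme and -100% = basal without enzyme; dose as in the result columns while the protocol names 77 µM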
Target sequence (P06280 whole entry, looked up): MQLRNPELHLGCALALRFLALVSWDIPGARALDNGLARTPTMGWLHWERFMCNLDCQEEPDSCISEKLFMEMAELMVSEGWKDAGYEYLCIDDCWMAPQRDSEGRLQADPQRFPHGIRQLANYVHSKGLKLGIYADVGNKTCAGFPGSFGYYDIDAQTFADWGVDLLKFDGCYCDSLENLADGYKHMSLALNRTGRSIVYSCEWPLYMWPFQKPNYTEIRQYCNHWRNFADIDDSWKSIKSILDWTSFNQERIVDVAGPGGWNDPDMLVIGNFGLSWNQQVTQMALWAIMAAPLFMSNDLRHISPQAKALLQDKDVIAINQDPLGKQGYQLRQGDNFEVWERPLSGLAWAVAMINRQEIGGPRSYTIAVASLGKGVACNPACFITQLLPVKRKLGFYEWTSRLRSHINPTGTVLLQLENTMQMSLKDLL
Rango dissoc inh: qHTS Assay for Inhibitors of RanGTP induced Rango (Ran-regulated importin-beta cargo) - Importin beta complex dissociation. Snurportin-1 (Homo sapiens) + GTP-binding nuclear protein Ran (Homo sapiens) + Importin …. Biochemical FRET Rango-importin beta, RanGTP-induced dissociation. Potency, µM (series often up to 46.1 µM), for inactives: top-dose activity change, negative = inhibition. actives 0.071% (n = 340,000); active means falling FRET ratio curve, often poorly fitted, with flat reads before Ran was added; inconclusive means other falling curves, or compound fluorescence or quenching; inactive means flat or rising ratio curve;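 further: potency means the concentration at half of the fitted maximal effect; % of control where 0% means no effect; nearly all actives have a fitted effect of over 45% in size; -100% = wells without RanGTP and RCC1; the record marks most hits as doubtful in a second field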
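Rango FRET biosensor (snurportin-1 IBB flanked by N-terminal EYFP and C-terminal CFP10) at 0.1 uM, with 0.25 uM importin beta in PBS, 1mM DTT, 0.02% Tween-20, 0.1% BSA. 0.6 uM Ran, 2mM GTP and 0.2 uM RCC1 were then added for 45 min at room temperature. Inhibition read as loss of FRET rise.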
Rango complex inh: qHTS Assay for Inhibitors of Rango (Ran-regulated importin-beta cargo) - Importin beta complex formation | Importin subunit beta-1 (Homo sapiens), Q14974 | Rango CFP/YFP FRET sensor + importin beta, 45 min | Potency, µM (titrated, usually from 92.2 µM), without a hit: top-dose inhibition of complex formation | actives 0.031% (n = 340,000) | AID 540263, 2011; active = rising FRET ratio curve, often small or poorly fitted; inconclusive = mostly compound fluorescence or quenching in the first reads; inactive = flat curves in all reads;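 further: potency means the concentration at half of the fitted maximal effect; 0% = DMSO wells and 100% = buffer wells lacking importin beta; nearly all actives have a fitted effect of over 15% in size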
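FRET biosensor Rango (snurportin 1 IBB between N-terminal EYFP and C-terminal Cerulean), 50 nM in PBS/1 mM DTT/0.02% Tween-20/0.1% BSA, preincubated 5 min RT with compound; 0.125 microM importin beta added, 45 min RT, CFP/YFP FRET ratio read.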
Active calls of the source: *; ? = inconclusive; · = not tested or not shown; & = joins results of further samples; [ ] = remark or other dose. The list is partial; the hit share may differ from the screen's.

Screens in order – miR-21 reporter	GLA inh pH 4.5	Rango dissoc inh	Rango complex inh
Cc1cccn2cc(CNS(=O)(=O)c3ccc4ccccc4c3)nc12
→ 13%	·	7%	0.5%
CC1Sc2ccc(S(=O)(=O)N3CCC(C(=O)Nc4cccc(Cl)c4)CC3)cc2NC1=O (centres undefined)
→ ?	·	0%	0.0%
COC(=O)c1[nH]c2ccc(Br)cc2c1NC(=O)CN1CCCCC1CCO (centres undefined)
→ -6%	1	-6%	0.4%
COc1ccc(-c2csc(/C(C#N)=C\c3cccc([N+](=O)[O-])c3)n2)cc1
→ -9%	6	·	·
Cc1ccc(NC(=O)CN2CCC(C(=O)c3ccc(F)cc3)CC2)cc1
→ -2%	-4	16%	-1.2%
O=C(Nc1cccc(S(=O)(=O)C(F)F)c1)c1ccc(S(=O)(=O)N2CCOCC2)cc1
→ 14%	-30	10%	1.2%
CC(C)c1ccc(NC(=O)C2CC3CCC2C3)cc1 (centres undefined)
→ -43%	·	2%	2.3%
CC(C)(C)c1ccc(C(=O)NCC(=O)N/N=C/c2ccccc2OCC(=O)O)cc1
→ -14%	6	-2%	0.1%
COc1ccc(/C=C(/NC(=O)c2ccccc2)C(=O)NC2CCS(=O)(=O)C2)cc1 (centres undefined)
→ -1%	6	6%	0.7%
CCOc1ccc(/C=N/N(C)c2ccccc2)cc1OC
→ -83%	-2	3%	4.6%
COc1ccc(CCNC(=O)C/C(C)=N/NC(=O)C23CC4CC(CC(C4)C2)C3)cc1OC
→ -19%	-2	9%	-0.5%
Cc1nc2ccc(NC(=O)c3ccc(S(=O)(=O)N(C)c4ccccc4)cc3)cc2s1
→ 27%	-5	4%	?
COc1ccc(/C=C/CN2CCN(Cc3ccccc3)C(CCO)C2)cc1 (centres undefined)
→ -1%	0	-14%	0.2%
COc1ccc(CCNC(=O)c2cnn(-c3ccc(C)c(C)c3)c2NC(=O)c2ccco2)cc1OC
→ -12%	12	-6%	5.1%
O=[N+]([O-])c1cc(C(F)(F)F)ccc1Oc1cccnc1[N+](=O)[O-]
→ -9%	-11	-7%	0.2%
Cc1ccc(S(=O)(=O)N2CCN(CC(=O)Nc3ccnn3C3CCCC3)CC2)cc1
→ ·	·	21%	7.2%
CCC[C@@H](CNC)NC[C@H](Cc1ccccc1)NCCCCc1ccccc1
→ 29%	·	18%	-0.2%
CCOC(=O)CCc1c(C)nc(SCC(=O)O)c(C#N)c1C
→ -6%	0	-7%	-2.2%
COc1cccc(C=Nc2ccc(C)c(F)c2)c1O
→ -7%	-13	-2%	-0.2%
COCCn1c(=NC(=O)c2cc3ccccc3oc2=O)sc2cc(S(N)(=O)=O)ccc21
→ -2%	5	21%	0.2%
O=C(c1ccc(Cl)cc1)c1cnc(-c2ccccc2)s1
→ -8%	2	-7%	0.3%
COC(=O)c1scc(C#N)c1N/N=C(\C#N)S(=O)(=O)c1ccc(Cl)cc1
→ 10%	-1	-13%	6.3%
CN1OC[C@@H]2CN[C@H](c3cccc(-c4cc(Cl)cc(Cl)c4)c3)C[C@@H]21
→ ·	·	22%	-4.9%
O=C(CCn1c(=O)sc2ccccc21)NCc1ccccc1
→ -9%	-2	-1%	-1.8%
O=C(COC(=O)CNC(=O)c1ccccc1Cl)Nc1ccccc1Cl
→ ·	·	4%	-3.0%
COc1ccc(NC(=O)/C(=C\c2ccc3c(c2)OCO3)NC(C)=O)cc1
→ -36%	-2	13%	1.8%
COc1cc2c(cc1OC)C(c1cccs1)N(C(=O)c1cccc(S(=O)(=O)N(C)C)c1)CC2 (centres undefined)
→ -19%	-1	?	6.1%
CCCCNC(=O)c1ccccc1NC(=O)C1=C(C)OCCS1
→ 5%	·	-2%	-3.9%
Cc1ccc(Cl)cc1N1CCN(C(=O)CN(c2ccccc2)S(=O)(=O)N(C)C)CC1
→ 15%	-3	8%	-0.4%
CCOC(=O)/C=C1\SCC(=O)N1CC(=O)NCc1ccc(OC)c(OC)c1
→ -1%	-23	18%	?
Cc1cccc([C@@H]2[C@@H]3C(=O)N(Cc4ccccc4)C(=O)[C@@H]3[C@]3(Cc4ccc(Cl)cc4)C(=O)N(c4cccc(Cl)c4)C(=O)N23)c1
→ ·	·	-7%	?
O=C(Cn1c(=O)c2cccn2c2ccc(F)cc21)NCCCN1CCN(c2ccccc2F)CC1
→ -8%	·	13%	0.1%
c1ccc(SCc2nc3ccccc3[nH]2)cc1
→ -53%	1	-1%	-0.7%
O=C(NC1CCCc2ccccc21)c1cccnc1 (centres undefined)
→ 0%	2	-9%	-0.5%
O=C(Cn1cnc2ccccc2c1=O)c1cccs1
→ -19%	10	11%	2.3%
O=C(Cn1cnc2ccc(Br)cc2c1=O)c1cccs1
→ -5%	-17	3%	7.0%
O=C(NCCCN1CCCC1=O)c1ccc(Cl)c(S(=O)(=O)N2CCCCC2)c1
→ ·	·	5%	3.9%
COc1ccc(NC(=O)CCC(=O)c2ccc(C(C)C)cc2)cc1
→ -4%	·	11%	1.9%
CN(C)CCCN=Cc1c(O)n(Cc2ccc3c(c2)OCO3)c(=O)c2ccccc12
→ -19%	-8	·	·
CN(C)c1ccc(/C=N/NC(=O)CCc2c[nH]c3ccccc23)cc1
→ 5%	2	0%	0.4%
Cc1ccc(-c2nc(S(=O)(=O)c3ccc(F)cc3)c(SCC(=O)NCC3CCCO3)o2)cc1 (centres undefined)
→ -12%	-11	3%	0.3%
COc1ccc(/C=C/C(=O)NC(=S)NNC(=O)Cc2cccs2)cc1
→ -15%	6	-6%	?
COc1ccccc1N1C(=NC(=O)CCc2ccccc2)SC2CS(=O)(=O)CC21 (centres undefined)
→ -3%	·	12%	3.8%
Cc1cccn2c(=O)nc(SCC(=O)NCc3ccco3)nc12
→ ·	·	14%	-0.4%
Cn1nc(Cc2n[nH]c(=S)n2C)c2ccccc2c1=O
→ 0%	9	-2%	0.3%
CCCC(=O)Nc1ccc2c(c1)nc(CCN1CCN(c3ccccn3)CC1)n2C
→ -2%	·	-14%	-1.2%
COC(=O)C1=C(O)/C(=C\c2ccc(CNC(=O)C(=O)Nc3ccc(C)c(C)c3)o2)N=C1C
→ -6%	-3	?	?
O=C(CCNS(=O)(=O)c1ccc2[nH]c(=O)oc2c1)Nc1cccc(Br)c1
→ -3%	·	-9%	1.5%
CCCCCn1c(CN2CCN(c3cccc(Cl)c3)CC2)nc2c1c(=O)[nH]c(=O)n2C
→ -7%	-11	2%	?
CC(C)CN(C(=O)COC(=O)CCC(=O)c1ccc(Cl)cc1)c1c(N)n(Cc2ccccc2)c(=O)[nH]c1=O
→ ·	·	2%	?
CC(Oc1cccnc1[N+](=O)[O-])C(=O)Nc1cccc(Cl)c1 (centres undefined)
→ ·	·	-10%	-1.6%
O=C(O)CCCCCNC(=O)c1ccccc1Br
→ -6%	-2	-11%	5.5%
COc1ccc(-c2noc(N3CCC(C(=O)Nc4ccccc4OC)CC3)n2)cc1
→ 7%	·	15%	-0.5%
CN(C)S(=O)(=O)c1ccc(C(=O)NCc2nnc(SCC(=O)Nc3ccc(F)cc3)n2-c2ccc(F)cc2)cc1
→ -8%	-5	8%	4.3%
O=C(NCCN1CCCC1=O)C1CCC(=O)N(CCc2cccc(F)c2)C1 (centres undefined)
→ -1%	·	-9%	-2.6%
CCOc1cc(S(=O)(=O)n2cnc(C)c2)ccc1Cl
→ -4%	4	1%	-0.4%
O=C(O)CCC(=O)Nc1ccc(-c2csc(Nc3cccc4ccccc34)n2)cc1
→ ·	·	-8%	-3.2%
CC1CCCCC12NC(=O)N(CC(=O)OCc1ccc(Br)cc1)C2=O (centres undefined)
→ ·	·	8%	3.6%
COCCN(C(=O)COC(=O)COc1ccc(Cl)c(C)c1)c1c(N)n(Cc2ccccc2)c(=O)[nH]c1=O
→ -2%	·	7%	?
Cc1cc(C)nc(N2CCC(C(=O)NNC(=O)Cc3ccccc3)CC2)n1
→ -2%	1	1%	0.7%

Single records, as listed above. Screens in order: miR-21 reporter	GLA inh pH 4.5	Rango dissoc inh	Rango complex inh
Cn1nc(Cc2n[nH]c(=S)n2C)c2ccccc2c1=O reads 0%	9	-2%	0.3%
CCCC(=O)Nc1ccc2c(c1)nc(CCN1CCN(c3ccccn3)CC1)n2C reads -2%	·	-14%	-1.2%

The list goes on.
Screens in order – miR-21 reporter	GLA inh pH 4.5	Rango dissoc inh	Rango complex inh
COc1ccc(-c2cc(Nc3ccccc3NC(=O)C(F)(F)F)n(CCC#N)n2)cc1
→ -1%	0	-6%	2.8%
COc1ccc(CCNC(=O)c2ccc(N3CCCC3=O)cc2)cc1OC
→ -14%	4	17%	7.4%
O=C(Nc1ccnn1C1CCN(C/C=C/c2ccccc2)CC1)C1CCCC1
→ -6%	·	-3%	-1.3%
C=CCNC(=O)c1c(N)n(-c2ccc3c(c2)OCO3)c2nc3ccccc3nc12
→ -2%	2	?	-6.3%
O=C(NNC(=S)NC(=O)c1ccc(Br)cc1)c1ccc([N+](=O)[O-])cc1
→ -14%	·	-6%	-0.5%
CC(NC(=O)CC1CCCCC1)c1ccccc1 (centres undefined)
→ -8%	·	18%	-0.2%
COC(=O)c1cn(-c2ccc(F)cc2)c(=O)c2ccccc12
→ -6%	-5	6%	-0.3%
O=c1c2[nH]c3ccccc3c2ncn1Cc1ccccn1
→ -3%	0	-6%	3.3%
Cc1scc(C(=O)NNC(=S)NCC2CCCO2)c1C (centres undefined)
→ -10%	-5	-1%	0.0%
COCCCNC(=S)NNC(=S)Nc1ccc(OC)cc1
→ -14%	1	-5%	-0.6%
O=C(Nn1cnc2ccccc2c1=O)c1c(F)cccc1F
→ -2%	·	-11%	-0.3%
CCCCOC(=O)c1ccc(NC(=O)Nc2ccc(OC)c(OC)c2)cc1
→ 14%	0	-18%	-0.4%
Cc1ccc(-c2ccc(SCC(=O)c3ccccc3)nn2)cc1
→ -33%	-4	-11%	1.1%
COc1cc(C(=O)Nc2ccc(C(F)(F)F)cc2)ccc1OCC(=O)N1CCOCC1
→ ·	·	5%	1.0%
CC1(C)C2([N+](=O)[O-])CN3CC1([N+](=O)[O-])CN(C2)C3c1ccccc1 (centres undefined)
→ -3%	3	-8%	0.2%
CC1CN(CCC(=O)Nc2ccc3c(c2)CCC3)CC(C)O1 (centres undefined)
→ -10%	4	21%	?
COc1cc2c(=O)nc3n(c2cc1OC)C(c1ccccc1)N=C(N)N3 (centres undefined)
→ 1%	1	·	·
CCCCn1c(=O)c(CCC(=O)OCC(=O)NC(=O)NCCOC)nc2ccccc21
→ -3%	2	-10%	-0.9%
COc1ccc2cc(Br)ccc2c1CC(=O)NCCCN1CCOCC1
→ ·	·	0%	-0.2%
O=C(N/C(=C\c1ccc(Br)cc1)C(=O)N1CCOCC1)c1ccc(Br)o1
→ -3%	·	10%	-1.6%
Cc1ccccc1NC(=O)CN1C(=O)NC(C)(c2ccc3c(c2)OCO3)C1=O (centres undefined)
→ -2%	5	-1%	7.3%
COc1ccc(-n2ccnc2SCC(=O)NCc2ccc(F)cc2)c(OC)c1
→ 1%	-9[21.1 µM]	3%	-0.7%
CCC(C(=O)NC1CCCC1)N(C(=O)c1snc(C(N)=O)c1N)c1ccc2c(c1)OCCO2 (centres undefined)
→ -7%	1	-6%	3.3%
COc1ccc(CCNC(=O)c2csc3c2CCCC3)cc1
→ -22%	-7	-8%	0.3%
COc1ccc(OC)c(NC(=O)C2CCN(S(=O)(=O)c3ccc4c(c3)CC(C)N4C(C)=O)CC2)c1 (centres undefined)
→ 9%&4%	·	2%	2.8%
Cc1cccc(C)c1NC(=O)CNC(=O)COC(=O)c1ccc(Cl)s1
→ ·	·	-11%	0.4%
